AF4-AF9 inh = inhibitors of AF4 peptide binding to AF9, primary screen, biochemical, AlphaScreen, biotin-AF4 peptide, FLAG-AF9, single point; Protein AF-9 (Homo sapiens), P42568; inhibition, % at 10 µM; 350,000 compounds, 0.47% hits; AID 651704, 2012;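 active means every replicate reaching a set inhibition limit, whatever the replicate mean, cut at about 25% in these data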;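 further: 0% = plate neutral control median and 100% = total signal loss; the record names both 10 and 1 µM as test concentration; the first replicate is given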
Target sequence (P42568 whole entry, looked up): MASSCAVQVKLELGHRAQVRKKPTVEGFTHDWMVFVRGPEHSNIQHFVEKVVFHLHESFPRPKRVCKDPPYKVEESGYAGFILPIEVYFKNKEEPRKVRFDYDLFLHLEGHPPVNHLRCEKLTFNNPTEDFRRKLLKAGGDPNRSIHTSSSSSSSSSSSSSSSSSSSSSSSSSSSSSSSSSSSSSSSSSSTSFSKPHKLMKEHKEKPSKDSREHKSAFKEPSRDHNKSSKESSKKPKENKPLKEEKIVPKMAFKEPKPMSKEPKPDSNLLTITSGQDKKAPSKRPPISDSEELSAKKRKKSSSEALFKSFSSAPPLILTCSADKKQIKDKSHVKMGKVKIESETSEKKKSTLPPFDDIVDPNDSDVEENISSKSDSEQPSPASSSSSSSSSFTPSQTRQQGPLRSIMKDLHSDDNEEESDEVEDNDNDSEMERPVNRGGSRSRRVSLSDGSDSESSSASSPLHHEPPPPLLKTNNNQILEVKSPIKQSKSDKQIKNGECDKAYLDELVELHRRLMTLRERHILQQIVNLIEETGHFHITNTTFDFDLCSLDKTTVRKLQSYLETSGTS
FGF22 binding = binders of human FGF22 protein, primary screen, FGF22 synaptogenesis inhibitor project, biophysical, thermal shift, single point; recombinant FGF22 thermal shift, SYPRO orange fluorescence; percent of sucrose octasulfate shift, DMSO zero; 340,000 compounds, 1.5% hits; calls only at 9.99 µM; AID 651658, 2012;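 active means melting point raised past a set limit in the mean and every replicate; three in four hits are not shown here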
Target sequence (Q9HCT0 whole entry, looked up): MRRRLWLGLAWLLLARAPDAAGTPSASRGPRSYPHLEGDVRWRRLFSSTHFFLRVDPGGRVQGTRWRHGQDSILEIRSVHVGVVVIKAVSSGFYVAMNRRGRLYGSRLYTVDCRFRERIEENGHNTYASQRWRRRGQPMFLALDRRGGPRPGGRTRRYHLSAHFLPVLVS
Ecoli rRNA inh = reduced GFP signal of wild-type E. coli, primary screen, bacterial rRNA inhibitor project, GFP/RFP fluorescence, OD600, single point; E. coli WT GFP vs humanized-ribosome RFP mutants, 24 h; stronger effect = lower value; DMSO median 0, no signal -100; 350,000 compounds, 1.6% hits; GFP signal change (wild-type ribosome), % (test concentration not listed);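 active means significant combined selectivity score with lowered wild-type GFP, culture density cut under 30%, mutant RFP and density less affected; inactive means any of these conditions unmet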; further: one replicate is shown; some compounds called inactive have numbers as strong as hits
Ecoli rRNA inh OD600 = also measured in Ecoli rRNA inh; calls as there; OD600 change, %; measured here: OD600 growth;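 optical density of the mix in the first replicate; 0 = DMSO median and -100 = no signal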
Ecoli rRNA inh RFP = second read-out of Ecoli rRNA inh, no call of its own (marks repeat the call); RFP signal change, %; measured here: RFP humanized mutant strains;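 first replicate; 0 = DMSO median and -100 = no signal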
Numbers without * were called inactive; i = inactive; · = no result given; & = joins results of further samples. Only part of the results is shown, so the mix of outcomes need not match the whole.

SMILES	Ecoli rRNA inh RFP	FGF22 binding	AF4-AF9 inh	Ecoli rRNA inh OD600	Ecoli rRNA inh
Cc1cc(-c2ccc(F)cc2)n2ncc(-c3ccccc3)c2n1	1.4	i	-1.6	16.3	20.8
COC(=O)[C@@]12C[C@@H](CC(=O)NCC34CC5CC(CC(C5)C3)C4)C(=O)N(Cc3cccc4ccccc34)C1=CCC(C)(C)C2	-4.3	i	0.2	15.2	6.4
C[C@H](CO)N1C[C@H](C)[C@H](CN(C)Cc2cncnc2)Oc2ncc(-c3ccc(F)cc3)cc2C1=O	-0.2	i	-7.0	-0.1	0.2
CCCC#Cc1ccc([C@@H]2[C@@H](CO)N3CCCCN(S(C)(=O)=O)C[C@H]23)cc1	-1.3	i	12.0	15.8	2.1
Cc1ccc(-c2ccccc2[C@H]2[C@@H](C#N)N(c3ncc(-c4ccccc4)s3)[C@H]2CO)cc1	-1.9	i	0.3	5.6	-1.1
Cc1noc(C)c1NC(=O)N[C@H]1CC[C@H](CCNC(=O)C2CCCC2)O[C@@H]1CO	0.6	i	-1.6	3.0	3.2
CCc1cnc(N2[C@H](C#N)[C@H](c3ccc(C4=CCCCC4)cc3)[C@H]2CO)s1	-1.0	i	4.7	-0.6	1.0
O=C(C[C@@H]1C=C[C@@H](NC(=O)c2cccnc2)[C@@H](CO)O1)NCc1ccncn1	0.6&2.5	i	-3.0	-1.5&14.2	2.2&11.2
CN1C(=O)c2cc(NC(=O)c3ccc(F)c(F)c3)ccc2OC[C@@H]2O[C@H](CC(=O)N3CCCCC3)CC[C@H]21	0.7	i	0.1	-5.1	-2.0
Cc1noc(C)c1S(=O)(=O)N(C)C[C@H]1OCCCC[C@@H](C)Oc2ccc(NS(=O)(=O)c3cccs3)cc2C(=O)N([C@@H](C)CO)C[C@H]1C	2.6	i	1.4	-3.0	-2.1
C[C@H]1CN([C@@H](C)CO)C(=O)Cc2cc(NC(=O)Nc3cccc4ccccc34)ccc2O[C@@H]1CN(C)Cc1ccc2c(c1)OCO2	4.7	i	0.8	1.1	1.7
CO[C@@H]1CN(C)C(=O)c2ccc(NC(=O)C3CCOCC3)cc2OC[C@H](C)NC[C@H]1C	-0.8	i	0.3	0.0	1.0
C[C@H](CO)N1C[C@H](C)[C@@H](CN(C)C(=O)c2ccc3c(c2)OCO3)Oc2cc(C#Cc3ccccc3F)ccc2S1(=O)=O	-1.2	i	-0.6	-2.3	-1.5
CC=Cc1ccc2n(c1=O)C[C@@H]1[C@@H](CO)[C@H](C(=O)NCCc3ccccc3)N(CCC)[C@H]21 (mixture of isomers)	4.5	i	0.8	-2.6	1.0
Cc1noc(C)c1S(=O)(=O)N(C)C[C@@H]1OCCCC[C@@H](C)Oc2ccc(NS(=O)(=O)c3ccc(Cl)cc3)cc2C(=O)N([C@H](C)CO)C[C@@H]1C	-0.1	i	-3.0	-1.0	-1.9
COc1ccc(S(=O)(=O)N2CCC3(CC2)CN(Cc2ccncc2)[C@@H](CO)c2[nH]c4cc(OC)ccc4c23)cc1	3.5	i	-3.3	-14.1	-4.3
COCC(=O)N1[C@H](CO)[C@@H](c2ccc(C#CCC3CCCC3)cc2)[C@@H]1C#N	-2.8	i	3.4	-53.5	-24.2
COc1ccc2c3c([nH]c2c1)[C@H](CO)N(C(=O)C1CCC1)CC31CCN(C)CC1	2.2	i	-0.8	9.2	5.1
C[C@@H]1CN([C@@H](C)CO)C(=O)c2cccc(NS(=O)(=O)c3cccs3)c2O[C@H]1CN(C)Cc1ccc(Cl)c(Cl)c1	0.9	i	2.8	6.8	0.2
C[C@H](O)C#Cc1ccc([C@H]2[C@H](CO)N3CCCCN(CC4CC4)C[C@@H]23)cc1	2.0	i	7.7	7.8	6.2
Cc1noc(C)c1NC(=O)N(C)C[C@@H]1Oc2ccc(NC(=O)CCCN(C)C)cc2C(=O)N([C@@H](C)CO)C[C@@H]1C	-1.6	i	-2.2	4.2	0.4
C[C@@H]1CCCCO[C@H](CN(C)S(=O)(=O)c2cccs2)[C@H](C)CN([C@@H](C)CO)C(=O)c2cc(NC(=O)Nc3ccccc3)ccc2O1	3.7	i	1.3	2.2	-0.2
C[C@@H]1CN([C@@H](C)CO)C(=O)c2cc(NC(=O)Nc3ccccc3)ccc2O[C@@H](C)CCCCO[C@@H]1CN(C)Cc1ccc(C(=O)O)cc1	3.0	i	-1.1	-3.3	-1.3
C[C@H](CO)N1C[C@H](C)[C@@H](CN(C)CC2CCOCC2)Oc2ncc(C#CCC3CCCC3)cc2C1=O	-4.2	i	1.7	11.8	1.4
C[C@@H]1CCCCO[C@H](CN(C)C(=O)NC2CCCCC2)[C@H](C)CN([C@@H](C)CO)C(=O)c2cc(NC(=O)CCCN(C)C)ccc2O1	-0.5	i	0.9	-3.4	0.7
COCCN1C(=O)[C@H]2C[C@@]13O[C@H](C1CCCCC1)N=C3CC1c3ccccc3C[C@@]12C (some centres undefined)	-3.3	·	2.2	-20.1	-16.7
COc1ccc2c3c(n(C)c2c1)[C@H](CO)N(C(=O)NC(C)C)CC31CN(CC2CCCCC2)C1	1.5	i	14.0	-4.6	0.6
CC(C)NC(=O)Nc1cccc2c1O[C@@H](CN(C)Cc1ccccc1)[C@@H](C)CN([C@@H](C)CO)C2=O	-0.3	i	-0.6	1.8	0.9
CCCNC(=O)N1C[C@@H]2[C@H](c3ccccc31)[C@@H](CO)N2C(=O)c1ccncc1	0.8	i	-2.7	10.4	3.2
Cc1ccc(S(=O)(=O)N(C)C[C@H]2OCCCC[C@@H](C)Oc3ccc(NS(C)(=O)=O)cc3C(=O)N([C@@H](C)CO)C[C@@H]2C)cc1	-0.2	i	0.3	-3.3	-2.4

Continued.
SMILES	Ecoli rRNA inh RFP	FGF22 binding	AF4-AF9 inh	Ecoli rRNA inh OD600	Ecoli rRNA inh
CC(C)NC(=O)N(C)C[C@@H]1Oc2ccc(NS(=O)(=O)c3cn(C)cn3)cc2CC(=O)N([C@H](C)CO)C[C@@H]1C	-3.0	i	-0.8	-2.4	-0.5
O=S(=O)(c1ccc(F)cc1)N1CC[C@@H]2[C@H]1c1cc(C#CC3CCCCC3)ccc1N[C@@H]2CO	0.0	i	1.3	-2.0	-2.7
C[C@H](CO)N1C[C@H](C)[C@@H](CN(C)S(C)(=O)=O)Oc2ncc(/C=C/c3ccccc3)cc2C1=O	0.9	i	4.4	10.3	0.4
CCCN(C)C[C@H]1OCCCC[C@H](C)Oc2ccc(NC(=O)NC3CCCCC3)cc2C(=O)N([C@@H](C)CO)C[C@H]1C	0.4	i	1.7	-1.0	2.4
CC=Cc1ccc2n(c1=O)C[C@@H]1[C@@H](CO)[C@H](C(=O)N(C)C)N(CC3CC3)[C@H]21 (mixture of isomers)	0.7	i	-1.0	0.1	3.5
COCCn1c(SCC(=O)Nc2ccc3c(c2)OCCO3)nc2ccccc2c1=O	2.6	i	-1.2	-9.2	7.5
O=C(c1ccc2c(c1)OCO2)N1CCCCN2[C@H](CO)[C@H](c3ccc(-c4ccccc4)cc3)[C@H]2C1	-0.1	i	5.0	-57.2	-36.0
COc1ccc(S(=O)(=O)Nc2ccc3c(c2)CC(=O)N([C@@H](C)CO)C[C@@H](C)[C@H](CN(C)C(=O)Nc2ccc(C(F)(F)F)cc2)O3)cc1	0.9	i	-1.6	-6.0	0.8
C[C@H]1CN([C@@H](C)CO)C(=O)c2cc(-c3ccccc3)cnc2O[C@@H]1CN(C)C(=O)Nc1ccc2c(c1)OCO2	0.1	i	2.2	-3.6	-0.2
COc1ccc(NC(=O)N(C)C[C@@H]2Oc3ccc(NC(=O)Nc4ccccc4)cc3CC(=O)N([C@@H](C)CO)C[C@H]2C)cc1	4.7	i	14.7	0.8	-3.5
O=C([C@@H]1[C@@H](CO)[C@@H]2Cn3c(cccc3=O)[C@H]1N2CC1CCCCC1)N1CCOCC1	-0.4	i	-1.2	3.3	0.7
CCNC(=O)C1(C)CCCN(C(=O)c2ccc(F)c(C)c2)C1 (centres undefined)	-1.4	i	-0.8	28.8	11.4
Cc1noc(C)c1NC(=O)Nc1ccc2c(c1)C(=O)N([C@H](C)CO)C[C@@H](C)[C@@H](CN(C)S(=O)(=O)c1c(C)noc1C)O2	3.1	i	-0.2	2.3	2.4
Cc1noc(C)c1S(=O)(=O)N(C)C[C@H]1OCCCC[C@@H](C)Oc2ccc(NC(=O)Nc3ccc(C(F)(F)F)cc3)cc2C(=O)N([C@@H](C)CO)C[C@H]1C	-1.2	i	-3.9	2.7	-2.0
CCc1nc2ccc(C(=O)Nc3cccc(OCC(=O)N(C)C)c3)cn2c1N(C)Cc1cc2ccccc2s1	30.4	i	-0.2	7.9	-2.9
CC(C)CCC[C@](C)(O)c1ccc(C(=O)O)cc1O	-7.5	i	-0.3	-40.2	-36.5
COc1ccc(-c2ccccc2[C@@H]2[C@@H](C#N)N(C(=O)NC3CCCCC3)[C@H]2CO)cc1	0.4	i	-6.1	-7.7	-8.3
CC(=O)N(C)C[C@@H]1Oc2ncc(-c3cncnc3)cc2C(=O)N([C@H](C)CO)C[C@H]1C	-1.4	i	-2.0	9.2	3.3
CC(=O)N(C)C[C@@H]1Oc2ncc(C#CCC3CCCC3)cc2C(=O)N([C@@H](C)CO)C[C@H]1C	-1.6	i	-0.9	-4.0	-1.8
CS(=O)(=O)Nc1ccc2c(c1)[C@@H]1C[C@H](CC(=O)NCC3CC3)O[C@@H](CO)[C@@H]1O2	0.9	i	1.1	13.8	4.6
CC=Cc1ccc2n(c1=O)C[C@@H]1[C@@H](CO)[C@H](C(=O)NCC)[C@H]2N1C(C)=O (mixture of isomers)	-2.0	i	-0.1	1.6	1.4
COc1ccc(S(=O)(=O)Nc2ccc3c(c2)C(=O)N([C@H](C)CO)C[C@@H](C)[C@@H](CN(C)S(=O)(=O)c2ccc(OC)cc2)O3)cc1	4.0	i	1.9	-0.6	0.9
COc1ccc(CN(C)C[C@@H]2Oc3c(NC(=O)NC4CCCCC4)cccc3C(=O)N([C@H](C)CO)C[C@H]2C)cc1	-1.1	i	6.3	-20.0	-7.2
CCc1nc2ccc(C(=O)Nc3cc(-c4ccccc4)ccc3OC)cn2c1N(C)Cc1ccc(OC)cc1	18.2	i	2.2	22.8	12.2
N#C[C@H]1[C@@H](c2ccc(/C=C/c3ccccc3)cc2)[C@@H](CO)N1C(=O)C1CC1	1.0	i	-0.4	2.1	1.6
COc1cc2c(cc1N)-c1ccc(N)cc1C2	-3.9	·	13.4	0.8	-14.9
CNC[C@H]1OCCCC[C@@H](C)Oc2ccc(NC(=O)Nc3c(C)noc3C)cc2C(=O)N([C@@H](C)CO)C[C@H]1C	-0.8	i	1.0	8.9	4.0
Cc1ccc(S(=O)(=O)N[C@@H]2CC[C@H](CCn3cc(-c4cccnc4)nn3)O[C@H]2CO)cc1	0.4	i	-0.3	0.0	2.9
CCOC(=O)N1CCC(NC(=O)CCc2c(C)nc3c(c(C)nn3-c3ccccc3)c2C)CC1	-0.5	i	-6.4	14.5	11.2

4 successive compounds out of the list so far:
SMILES	Ecoli rRNA inh RFP	FGF22 binding	AF4-AF9 inh	Ecoli rRNA inh OD600	Ecoli rRNA inh
CC(C)NC(=O)N(C)C[C@@H]1Oc2ccc(NS(=O)(=O)c3cn(C)cn3)cc2CC(=O)N([C@H](C)CO)C[C@@H]1C	-3.0	i	-0.8	-2.4	-0.5
O=S(=O)(c1ccc(F)cc1)N1CC[C@@H]2[C@H]1c1cc(C#CC3CCCCC3)ccc1N[C@@H]2CO	0.0	i	1.3	-2.0	-2.7
C[C@H](CO)N1C[C@H](C)[C@@H](CN(C)S(C)(=O)=O)Oc2ncc(/C=C/c3ccccc3)cc2C1=O	0.9	i	4.4	10.3	0.4
CCCN(C)C[C@H]1OCCCC[C@H](C)Oc2ccc(NC(=O)NC3CCCCC3)cc2C(=O)N([C@@H](C)CO)C[C@H]1C	0.4	i	1.7	-1.0	2.4

Compound activity: PubChem, Broad Institute
